Env fusion inh: HIV envelope-mediated fusion inhibition; HeLa-JRFL Env/CEM21 cell fusion, luciferase; AID 651610; inhibition, % at 12.3 µM; actives 1.1% (n = 360,000);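 active means mean replicate inhibition score of at least 50 and every replicate individually at or above 50; inconclusive means only one of the two criteria met; inactive means mean below 50 and not all replicates reaching 50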;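 further: 0% = plate neutral controls and 100% = maraviroc near 300 nM; one replicate is shown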
* = called active by the depositor; ? = inconclusive; [ ] = dose if it differs, or a comment. Some of the compounds tested, so the mix of outcomes need not match the whole.

C[C@@H]1CN([C@H](C)CO)C(=O)c2c(c3ccccc3n2C)-c2ccccc2CO[C@@H]1CN(C)S(=O)(=O)c1ccccc1C#N
  Env fusion inh: -110.4[16.7 µM]
CCC(=O)Nc1ccc2c(c1)OC[C@@H](C)N(Cc1nccs1)C[C@H](C)[C@@H](OC)CN(C)C2=O
  Env fusion inh: 5.9[16.7 µM]
COC(=O)c1cc2c(c3c4ccccc4n(S(=O)(=O)c4ccc(OC)cc4)c13)C(=O)N(Cc1ccccc1OC)C2
  Env fusion inh: 14.0
CCS(=O)(=O)Nc1ccc2c(c1)C(=O)N(C)C[C@@H](OC)[C@H](C)CN(CCC(F)(F)F)[C@H](C)CO2
  Env fusion inh: 2.3[16.7 µM]
CO[C@@H]1CN(C)C(=O)c2cc(NC(C)=O)ccc2OC[C@@H](C)N(S(=O)(=O)c2cn(C)cn2)C[C@H]1C
  Env fusion inh: -1.1[16.7 µM]
CN1C(=O)c2cc(NC(=O)c3ccc(F)c(F)c3)ccc2OC[C@H]2O[C@@H](CC(=O)N[C@@H]3CCN(Cc4ccccc4)C3)CC[C@H]21
  Env fusion inh: 23.0[16.7 µM]
O=C(NCc1ccc(F)cc1)[C@@H]1[C@@H](CO)[C@@H]2Cn3c(cccc3=O)[C@@H]2N1CCC(F)(F)F
  Env fusion inh: 11.3[16.7 µM]
O=C(C[C@H]1CC[C@@H](NC(=O)Cc2ccccn2)[C@@H](CO)O1)NCCc1ccncc1
  Env fusion inh: -16.5[16.7 µM]
Cc1noc(C)c1NC(=O)Nc1ccc2c(c1)CC(=O)N([C@H](C)CO)C[C@H](C)[C@H](CN(C)Cc1ccc(-c3ccccc3)cc1)O2
  Env fusion inh: -125.7[16.7 µM]
C[C@H](CO)N1C[C@H](C)[C@H](CN(C)Cc2ccncc2)Oc2ncc(-c3ccc(F)cc3)cc2C1=O
  Env fusion inh: 8.0[16.7 µM]
O=C(C[C@H]1CC[C@@H]2[C@H](COC[C@H](O)CN2Cc2cccc(-c3ccncc3)c2)O1)N1CCOCC1
  Env fusion inh: 40.4[16.7 µM]
CO[C@@H]1CC[C@H]2CCOc3c(C#N)cccc3C(=O)N(C)C[C@H](C)C(=O)N(C)C[C@H]1O2
  Env fusion inh: -10.6[16.7 µM]
C/C=C/c1ccc2c(c1)O[C@@H](CN(C)C(=O)C1CCC1)[C@H](C)CN([C@H](C)CO)S2(=O)=O
  Env fusion inh: -12.3[16.7 µM]
C[C@@H]1CN([C@@H](C)CO)C(=O)c2cc(NC(=O)C3CC3)ccc2O[C@@H]1CN(C)S(C)(=O)=O
  Env fusion inh: 8.2[16.7 µM]
COC(=O)[C@]12C[C@H](CC(=O)N3CCN(C(=O)C4CC4)CC3)C(=O)N(CCC3=CCCCC3)C1=C[C@H](C(C)(C)C)O[C@@H]2C
  Env fusion inh: 56.8*

Some of the entries so far, with the structure last:
Env fusion inh | Compound
11.3[16.7 µM] | O=C(NCc1ccc(F)cc1)[C@@H]1[C@@H](CO)[C@@H]2Cn3c(cccc3=O)[C@@H]2N1CCC(F)(F)F
5.9[16.7 µM] | CCC(=O)Nc1ccc2c(c1)OC[C@@H](C)N(Cc1nccs1)C[C@H](C)[C@@H](OC)CN(C)C2=O
-1.1[16.7 µM] | CO[C@@H]1CN(C)C(=O)c2cc(NC(C)=O)ccc2OC[C@@H](C)N(S(=O)(=O)c2cn(C)cn2)C[C@H]1C

(continued)
CN(C)CCCNC(=O)[C@H]1[C@H](CO)[C@H]2Cn3c(cccc3=O)[C@@H]1N2C(=O)Nc1cc(F)ccc1F
  Env fusion inh: 3.7[16.7 µM]
COc1cccc(S(=O)(=O)Nc2ccc3c(c2)OC[C@@H](C)N(Cc2ccccc2F)C[C@H](C)[C@@H](OC)CN(C)C3=O)c1
  Env fusion inh: -30.6[16.7 µM]
C[C@H](CO)N1C[C@H](C)[C@@H](CN(C)C(=O)C2CCCCC2)Oc2ncc(C#Cc3ccccc3F)cc2C1=O
  Env fusion inh: 20.2[16.7 µM]
O=C(C[C@@H]1C[C@@H]2c3cc(NC(=O)c4cccnc4)ccc3O[C@@H]2[C@@H](CO)O1)NCc1cc(F)ccc1F
  Env fusion inh: -32.3[16.7 µM]
CCOC(=O)c1c(Nc2ccc(OC)cc2)n[nH]c1C
  Env fusion inh: -85.1
COc1ccccc1CNC(=O)C[C@@H]1C[C@@H]2c3cc(NC(=O)c4ccc5c(c4)OCO5)ccc3O[C@@H]2[C@H](CO)O1
  Env fusion inh: 3.2[16.7 µM]
CCCC(=O)Nc1ccc2c(c1)OC[C@H](C)N(CC1CCOCC1)C[C@@H](C)[C@@H](OC)CN(C)C2=O
  Env fusion inh: -12.8[16.7 µM]
C[C@H](CO)N1C[C@H](C)[C@@H](CN(C)Cc2ccc(-c3ccccc3)cc2)Oc2ccc(NS(=O)(=O)c3ccc(Cl)cc3)cc2CC1=O
  Env fusion inh: 21.9[16.7 µM]
C[C@H](CO)N1C[C@H](C)[C@@H](CN(C)Cc2ccc(Oc3ccccc3)cc2)Oc2ncc(-c3cncnc3)cc2C1=O
  Env fusion inh: 3.3[16.7 µM]
C[C@@H]1CN([C@@H](C)CO)S(=O)(=O)c2ccc(C#CCN(C)C)cc2O[C@@H]1CN(C)S(=O)(=O)c1cccc(F)c1
  Env fusion inh: 9.7[16.7 µM]
Nc1ccn([C@@H]2O[C@H](C(=O)N[C@H](Cc3ccccc3)C(=O)Nc3ccc4scnc4c3)[C@@H](O)[C@H]2O)c(=O)n1
  Env fusion inh: -5.6
Cc1noc(C)c1NC(=O)Nc1ccc2c(c1)CC(=O)N([C@@H](C)CO)C[C@H](C)[C@H](CN(C)C(=O)NC1CCCCC1)O2
  Env fusion inh: -56.1[16.7 µM]
CCN=C1NC(c2ccc(F)cc2)C(C(=O)OC)=C(C)N1Cc1ccccc1C(F)(F)F (stereo not drawn)
  Env fusion inh: 7.4
C[C@H]1CN([C@@H](C)CO)S(=O)(=O)c2ccc(-c3cncnc3)cc2O[C@H]1CN(C)Cc1ccc(Oc2ccccc2)cc1
  Env fusion inh: 40.5[16.7 µM]
CO[C@@H]1CN(C)C(=O)c2ccc(NS(=O)(=O)c3ccc(Oc4ccccc4)cc3)cc2OC[C@H](C)NC[C@@H]1C
  Env fusion inh: -11.9[16.7 µM]

Nc1[nH]c(C(=O)c2ccccc2)c(-c2ccc(Cl)cc2Cl)c1C(=O)c1ccc(Cl)cc1
  Env fusion inh: 21.8
Cc1noc(C)c1NC(=O)Nc1cccc2c1O[C@@H](CN(C)C(=O)Nc1ccc(F)cc1)[C@@H](C)CN([C@H](C)CO)C2=O
  Env fusion inh: -8.7[16.7 µM]
CN1OC[C@@H]2CN(C(=O)c3ccc([N+](=O)[O-])cc3)[C@H](c3ccccc3Br)C[C@@H]21
  Env fusion inh: -73.7
CO[C@H]1CN(C)C(=O)c2ccc(NC(=O)c3ccc4c(c3)OCO4)cc2OC[C@@H](C)N(CCC(F)(F)F)C[C@@H]1C
  Env fusion inh: 33.0[16.7 µM]
C[C@@H]1CN([C@@H](C)CO)C(=O)c2cc(NC(=O)Nc3ccccc3)ccc2O[C@H]1CN(C)C(=O)Nc1ccc2c(c1)OCO2
  Env fusion inh: 10.6[16.7 µM]
CO[C@H]1CN(C)C(=O)c2cc(NC(=O)c3cc(C)on3)ccc2OC[C@@H](C)NC[C@H]1C
  Env fusion inh: -4.4[16.7 µM]
CCCN1C[C@H](C)[C@H](OC)CN(C)C(=O)c2cc(NC(=O)c3cnccn3)ccc2OC[C@@H]1C
  Env fusion inh: 1.7[16.7 µM]
C[C@@H]1CN([C@@H](C)CO)C(=O)Cc2cc(NC(=O)C3CC3)ccc2O[C@H]1CN(C)C
  Env fusion inh: 3.2[16.7 µM]
COc1ccc(CN(C)C[C@H]2Oc3ccc(NS(=O)(=O)c4cccs4)cc3C(=O)N([C@@H](C)CO)C[C@H]2C)cc1
  Env fusion inh: -10.5[16.7 µM]
COc1ccccc1CNC(=O)C[C@H]1CC[C@H]2[C@@H](COC[C@@H](O)CN2Cc2ccc3c(c2)OCO3)O1
  Env fusion inh: 1.9[16.7 µM]
CC(C)(C)[S@@](=O)N1Cc2cc(C(=O)N[C@H]3CCN(Cc4ccccc4)C3)nc(-c3cccc(-c4cccnc4)c3)c2[C@H]1CCO
  Env fusion inh: 8.6[16.7 µM]
COC(=O)C1=C(C)N(C)C(=NCC2CC2)NC1c1ccccc1 (stereo not drawn)
  Env fusion inh: -0.8
CO[C@@H]1CN(C)C(=O)c2cc(NC(=O)Nc3ccc(Cl)cc3)ccc2OC[C@H](C)N(C(=O)Nc2c(C)noc2C)C[C@H]1C
  Env fusion inh: -14.4[16.7 µM]
CC(C)NC(=O)Nc1ccc2c(c1)C(=O)N([C@H](C)CO)C[C@H](C)[C@H](CN(C)C(=O)NC(C)C)OCCCC[C@H](C)O2
  Env fusion inh: 2.5[16.7 µM]
O=C(Nc1ccc2c(c1)[C@@H]1C[C@H](CC(=O)N3CCc4ccccc4C3)O[C@@H](CO)[C@@H]1O2)c1ccc2c(c1)OCO2
  Env fusion inh: 26.2[16.7 µM]

CN1CCN(C(=O)C[C@@H]2C[C@H]3c4cc(NS(C)(=O)=O)ccc4O[C@H]3[C@@H](CO)O2)CC1
  Env fusion inh: 20.0[16.7 µM]
COc1ccc(NC(=O)N2CCC3(CC2)CN(C(C)=O)[C@H](CO)c2[nH]c4cc(OC)ccc4c23)cc1
  Env fusion inh: 32.0[16.7 µM]
CCCc1ccc(-c2cc(NC(=O)Cc3c(C)[nH]c4ccccc34)ccc2N(C)c2cccnc2)cc1
  Env fusion inh: -1.6
O=C(C[C@@H]1CC[C@@H]2[C@H](COC[C@@H](O)CN2Cc2ccc(Oc3ccccc3)cc2)O1)N1CCc2ccccc2C1
  Env fusion inh: 9.7[16.7 µM]
C[C@H](CO)N1C[C@H](C)[C@H](CN(C)C(=O)NC2CCCCC2)OCc2ccccc2-c2ccccc2C1=O
  Env fusion inh: 11.2[16.7 µM]
O=C(C[C@@H]1CC[C@@H]2NC[C@H](O)COC[C@H]2O1)Nc1ccc(-c2ccccc2)cc1
  Env fusion inh: -2.2[16.7 µM]
O=C(Nc1cccc(Cl)c1)N[C@@H]1CC[C@@H](CCn2cc(Cc3ccccc3)nn2)O[C@@H]1CO
  Env fusion inh: 13.1[16.7 µM]
C[C@@H]1CN([C@H](C)CO)C(=O)c2cc(NC(=O)Nc3ccccc3)ccc2O[C@@H]1CN(C)C
  Env fusion inh: -1.4[16.7 µM]
CCOC(=O)c1cc2c(c(-c3cccc(-c4cccc(OC)c4)c3)n1)[C@@H](CCO)N(S(=O)C(C)(C)C)C2 (stereo partly drawn)
  Env fusion inh: -10.6[16.7 µM]
C[C@@H]1CN([C@H](C)CO)C(=O)c2cccc(NC(=O)Nc3ccc(C(F)(F)F)cc3)c2O[C@H]1CN(C)S(=O)(=O)c1ccccc1
  Env fusion inh: -68.8[16.7 µM]
O=C(C[C@@H]1CC[C@@H]2[C@H](COC[C@H](O)CN2Cc2cccc(Cl)c2)O1)Nc1nccs1
  Env fusion inh: 4.5[16.7 µM]
CC(C)NC(=O)N[C@H]1CC[C@H](CCN)O[C@@H]1CO
  Env fusion inh: -3.3[16.7 µM]
COC(=O)C1=C(C)N(C)C(=NCc2cc(OC)c(OC)c(OC)c2)NC1c1cccc(Cl)c1 (stereo not drawn)
  Env fusion inh: -14.0
CCOC(=O)[C@@H](C)N1[C@@H](C)[C@H](c2ccccc2)Oc2ccc(Cl)cc2S1(=O)=O
  Env fusion inh: ?
CCCNC(=O)C[C@H]1C[C@@H]2c3cc(NC(=O)NC4CCCCC4)ccc3O[C@@H]2[C@H](CO)O1
  Env fusion inh: 8.1[16.7 µM]

COCC(=O)Nc1ccc2c(c1)[C@H]1C[C@@H](CC(=O)N3CCOCC3)O[C@@H](CO)[C@H]1O2
  Env fusion inh: 2.8[16.7 µM]
CO[C@@H]1[C@H](O)CC[C@]2(O)CN(c3ccccc3)[C@](C)([C@H](O)CC=C(C)C)[C@@H]12
  Env fusion inh: -44.2
COc1ccc(S(=O)(=O)Nc2ccc3c(c2)CC(=O)N([C@@H](C)CO)C[C@@H](C)[C@@H](CN(C)S(=O)(=O)c2cn(C)cn2)O3)cc1
  Env fusion inh: 3.2[16.7 µM]
COc1cccc(NC(=O)Nc2ccc3c(c2)C(=O)N(C)C[C@@H](OC)[C@@H](C)CN(CC2CC2)[C@@H](C)CO3)c1
  Env fusion inh: 16.9[16.7 µM]
Cc1cc(Br)c2nc(-c3ccc(F)cc3)c(Cc3cccc(Cl)c3)n2c1
  Env fusion inh: 13.0
CN1C(=O)c2cc(NC(=O)C3CCOCC3)ccc2OC[C@H]2O[C@@H](CC(=O)NCc3ccc4c(c3)OCO4)CC[C@@H]21
  Env fusion inh: -10.5[16.7 µM]
O=C(NCc1ccc(F)cc1)[C@@H]1[C@@H](CO)[C@@H]2Cn3c(cccc3=O)[C@H]1N2C(=O)Cc1ccccn1
  Env fusion inh: -2.6[16.7 µM]
C[C@H](CO)N1C[C@H](C)[C@@H](CN(C)S(C)(=O)=O)OCCCC[C@H](C)Oc2ccc(NS(=O)(=O)c3ccccc3)cc2C1=O
  Env fusion inh: 1.8[16.7 µM]
O=C(N[C@H](C(=O)N1CCC[C@H]1C(=O)NCCc1ccccc1Cl)c1ccccc1)c1ccco1
  Env fusion inh: -10.6
O=C(C[C@H]1C[C@H]2c3cc(NC(=O)C4CCOCC4)ccc3O[C@H]2[C@@H](CO)O1)NCc1ccc2c(c1)OCO2
  Env fusion inh: 7.4[16.7 µM]
C[C@@H]1CN([C@H](C)CO)C(=O)c2cc(NC(=O)Nc3cccc4ccccc34)ccc2O[C@H]1CN(C)S(=O)(=O)c1cn(C)cn1
  Env fusion inh: 3.5[16.7 µM]
CNC[C@@H]1OCCCC[C@@H](C)Oc2ccc(NC(=O)Nc3ccc4c(c3)OCO4)cc2C(=O)N([C@H](C)CO)C[C@H]1C
  Env fusion inh: 11.4[16.7 µM]
C[C@H]1CN([C@@H](C)CO)S(=O)(=O)c2ccc(C#Cc3ccccn3)cc2O[C@H]1CN(C)C
  Env fusion inh: -10.5[16.7 µM]
COC(=O)[C@@H](Cc1ccccc1)NC(=O)[C@H]1O[C@@H](n2cnc3c(=O)[nH]c(N)nc32)[C@H](O)[C@@H]1O
  Env fusion inh: -27.1
CC=Cc1ccc2n(c1=O)C[C@H]1[C@H](CO)[C@@H](C(=O)NCCc3ccncc3)[C@@H]2N1CCC(F)(F)F (mixture of isomers)
  Env fusion inh: -13.3[16.7 µM]

Screens: PubChem, Broad Institute
